Screening results from PubChem BioAssay.
Mtb MbtI inh: inhibitors of Mycobacterium tuberculosis siderophore enzyme MbtI. P9WFX0. purified MbtI enzyme, fluorescence intensity read-out. inhibition, %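 (about 17 µg/mL by stock and volumes)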. 0.89% of 100,000 active;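 active means above 50% in both replicates, above 80% if mildly self-fluorescent; inactive means the rest, strongly fluorescent compounds included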;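 further: 0% = mean of negative and 100% = mean of positive controls; one replicate is shown; some compounds called inactive have numbers as strong as hits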
Target sequence (P9WFX0 whole entry, looked up): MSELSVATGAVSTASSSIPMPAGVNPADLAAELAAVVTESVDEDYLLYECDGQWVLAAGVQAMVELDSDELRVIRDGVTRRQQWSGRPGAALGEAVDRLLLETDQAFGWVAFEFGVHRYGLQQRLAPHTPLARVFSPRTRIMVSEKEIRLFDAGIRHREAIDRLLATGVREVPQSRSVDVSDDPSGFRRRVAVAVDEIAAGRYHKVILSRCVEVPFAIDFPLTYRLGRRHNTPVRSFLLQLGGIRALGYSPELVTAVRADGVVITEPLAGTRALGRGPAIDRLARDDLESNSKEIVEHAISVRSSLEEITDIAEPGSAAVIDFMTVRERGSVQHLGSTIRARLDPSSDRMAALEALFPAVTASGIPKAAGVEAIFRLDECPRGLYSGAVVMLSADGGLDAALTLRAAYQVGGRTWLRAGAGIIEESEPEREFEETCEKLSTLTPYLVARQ
PV pol inh: poliovirus RNA polymerase inhibition. poliovirus polymerase elongation, fluorescence polarization; stronger effect = lower value. % elongation, % (compound at 16.7 µg/mL). 0.66% of 150,000 active. AID 588519; in the data active means % elongation below about 90%; further: some results filed as inactive read as strong as hits
Target sequence (P03300 1749-2209 limits assumed): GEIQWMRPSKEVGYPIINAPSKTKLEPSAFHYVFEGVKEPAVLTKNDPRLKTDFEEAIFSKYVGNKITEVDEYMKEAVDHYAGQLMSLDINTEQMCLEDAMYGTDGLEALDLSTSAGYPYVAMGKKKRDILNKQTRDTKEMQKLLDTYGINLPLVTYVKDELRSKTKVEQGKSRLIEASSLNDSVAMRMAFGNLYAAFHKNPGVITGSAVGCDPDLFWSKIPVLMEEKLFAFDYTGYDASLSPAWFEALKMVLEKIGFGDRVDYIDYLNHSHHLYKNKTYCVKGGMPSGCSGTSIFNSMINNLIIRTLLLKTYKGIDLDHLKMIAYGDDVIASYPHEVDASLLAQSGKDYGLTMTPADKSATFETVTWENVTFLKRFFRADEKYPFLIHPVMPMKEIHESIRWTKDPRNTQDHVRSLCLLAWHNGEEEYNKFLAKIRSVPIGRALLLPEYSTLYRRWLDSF
MenB inh: inhibitors of Mycobacterium tuberculosis MenB enzyme; MenB enzyme assay, absorbance read-out; some hits fall short of the stated cut; inhibition, %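 (about 12 µg/mL by stock and volumes)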; P9WNP5; AID 540299; 0.43% of 100,000 active;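 active means mean of two replicates above 30%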;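 further: 0% = no compound and 100% = wells with inactive enzyme; the first replicate is given; strong numbers were not always called active; inactives centre near -10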
PV pol inh intensity: second read-out of PV pol inh, no call of its own (marks repeat the call); % elongation; measured here: total intensity read-out; formula for this scale not given here;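 total fluorescence in place of polarization; lower means less elongation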
Numbers without * were called inactive; i = inactive; . = not tested or not shown. An unsorted share of the library. About 2% of those tested had a hit in this group.

Second line of a record: Mtb MbtI inh, PV pol inh, PV pol inh intensity, MenB inh
- CCC/C(O)=C1\C(=O)CC(C)(C)CC1=NCCc1ccc(OCC)c(OCC)c1
    ., 104, 106, -11
- Cc1ccc(C)n1-c1ccc(C(=O)NCC(=O)O)cc1
    8, 69*, 84*, -13
- CC(=O)OC[C@H]1OC[C@H](OC(C)=O)[C@@H](OC(C)=O)[C@H]1OC(C)=O
    -2, 102, 105, 3
- CN(C(=O)c1ccccc1C(=O)O)C1CC(C)(C)NC(C)(C)C1
    ., 99, 101, -7
- CCN1C(=O)C2Cc3cc(OC)c(OC)cc3CN2C1=S (stereo unspecified)
    5, 100, 104, 6
- CC(Oc1ccc(-c2nnco2)cc1)C(=O)NC1(C#N)CCCCC1 (stereo unspecified)
    3, 104, 103, 4
- CC1=NN(c2ccccc2)C(=O)/C1=C\c1c(O)[nH]c(=O)[nH]c1=O
    4, 100, 100, -303
- Cn1c(=O)c(=O)n(C)c2ncccc21
    34, 97, 108, 8
- CC(C)(C)c1ccc(S(=O)(=O)CCSc2nc3ccccc3s2)cc1
    -9, 105, 109, -11
- O=C(CCn1c(=O)c2cccn2c2cccnc21)NCc1ccccc1
    7, 100, 105, 0
- CC1(C)CC(=O)C2=C(C1)Nc1[nH]n(-c3ccccc3)c(=O)c1C2c1cccs1 (stereo unspecified)
    5, 100, 103, 4
- N#CC1(C#N)C(c2cccnc2)C(C(=O)c2ccccc2)N2c3ccccc3C=CC21 (stereo unspecified)
    ., 44, 251, -36
- COc1ccc(F)cc1C(=O)CSc1nc2c3ccccc3ncn2n1
    3, 101, 104, -7
- CN(C)/C=N/c1sc2c(c1C#N)CC(C)(C)NC2(C)C
    5, 101, 101, -11
- CCOc1ccc(NC(=O)NC2CCN(c3ncccn3)CC2)cc1
    -19, 100, 101, 1
- CNC(=O)CCC(=O)Nc1ccc(C)cc1
    2, 103, 105, 11
- CCOC(=O)c1c(-c2ccccc2)oc2ccc(OCC(=O)NN)cc12
    -90, 100, 104, -12
- C(=Nn1cncn1)c1ccc(N2CCOCC2)cc1
    20, 100, 106, -20
- O=C(OCc1nc2ccccc2[nH]1)C1CCCCC1
    4, 107, 99, 6
- CCCSC1=C(N(C)C)C(=O)c2ccccc2C1=O
    7, 95, 90, -14
- O=c1nc2c(-c3cccc(Cl)c3)n[nH]n2c2ccccc12
    -17, 102, 111, -31
- CC1CC(C)CN(C(=O)c2cc(N(C)S(=O)(=O)c3ccccc3)ccn2)C1 (stereo unspecified)
    -7, 99, 102, -15
- O=C(Nc1ccccc1)C1Cc2ccccc2CN1C(=O)c1ccco1 (stereo unspecified)
    -40, 107, 110, 4
- N#Cc1cc[n+](CC(=O)c2cccs2)cc1
    -2, 104, 101, -53
- Cc1ccc(NCCNc2ccc(C)cc2C)c(C)c1
    6, 103, 107, -18
- C=C(C)C1CCC(C)OC1c1ccccc1 (stereo unspecified)
    17, 101, 103, -4
- COc1ccc2[nH]c(C)cc(=S)c2c1
    98, 92, 91, -88
- Cc1cc(-c2nnco2)c(C)n1-c1ccccc1
    -7, 98, 100, .
- COC(=O)C1=C(C)NC2=C(C(=O)CC(c3ccco3)C2)C1c1ccccc1Br (stereo unspecified)
    -408, 100, 98, -26
- OC1CNc2c(ccc3ccccc23)C1 (stereo unspecified)
    106, 101, 99, 10
- CC(C)(C)C(=O)COC(=O)c1ccc2c(c1)OCCO2
    6, 105, 105, -19
- O=c1c2c(ncn2C2CCCC2)n(Cc2ccccc2)c(=O)n1Cc1ccccc1
    -18, 104, 103, -24
- O=C(COC(=O)C1CCN(c2ccc(C(F)(F)F)cn2)CC1)NCc1ccccc1
    3, 102, 100, -18
- Cc1noc(C)c1NC(=O)NCCOc1ccccc1
    -3, 101, 99, -8
- Cc1c(Cl)cn2c(=O)cc(CN3CCN(c4ccccc4O)CC3)nc2c1Cl
    -3, 103, 99, -14
- COC(=O)C1=CN(Cc2ccc(F)cc2)C=C(C(=O)OC)C1c1ccc2c(c1)OCO2
    i, 100, 102, -39
- CCOC(=O)c1cc(Oc2nc(C)nc3sc4c(c23)CCCC4)cc(C(=O)OCC)c1
    -2, 103, 107, -3
- CNC(=O)O/N=C/c1ccc(F)c(Cl)c1
    3, 102, 107, 4
- CCCCCC1=C(O)c2ccccc2C(=O)C1=O
    17, 97, 99, -78
- CCCCn1c(N)c(N(CCC(C)C)C(=O)c2ccccc2F)c(=O)[nH]c1=O
    -5, 106, 102, -12
- O=C(CNC(=O)C1CCCCC1)NC1=NCCS1
    1, 105, 101, -7
- NS(=O)(=O)c1ccc(NNC(=O)CCc2ccccc2)cc1
    -3, 102, 104, 11
- O=C(CSc1nnc(NC2CC2)s1)N1CCCCC1
    -4, 102, 106, -10
- O=C(c1ccc(Oc2ccccc2)cc1)N1CCN(c2ccccn2)CC1
    -7, 102, 107, .
- C/C(=N/OC(=O)c1ccccc1)c1cccs1
    -17, 104, 104, -1
- CCc1ccc(-n2c(SCC(=O)NC3CC3)nc3ccccc3c2=O)cc1
    10, 104, 107, -14
- CCOC(=O)Nc1c(C(=O)OCC)[nH]c2ccc(F)cc12
    115, 104, 103, 4
- CCOC(=O)N1CCC2(CC1)C(C#N)=C(N)Oc1c2c(C)nn1-c1cccc(Cl)c1
    44, 99, 107, -21
- O=C(O)c1cc(-c2cccs2)nc2cc3c(cc12)OCCO3
    118, 99, 102, 10
- CCOC(=O)c1c[nH]c2c(C)c(Cl)ccc2c1=O
    -6, 101, 105, -1
- CCN(CC(=O)Nc1ccc2c(c1)OCCO2)c1nc(-c2cccnc2)nc2ccccc12
    18, ., ., 8
- CSc1nc(COc2ccc(C(C)(C)C)cc2)nc(N)c1C#N
    -5, 101, 110, -3
- COc1ccc(OCC(=O)Nc2ncccn2)cc1
    ., 107, 116, -18
- CCOC(=O)C1CCN(CCC(C)(C)c2ccc(C)o2)CC1
    -9, 101, 103, -37
- Cc1nc2ccccc2nc1N1CCC(C)CC1
    -58, 101, 104, -20
- Brc1ccc(CSc2nncn2-c2ccccc2)cc1
    -3, 103, 104, -4
- Cc1ccc(-c2cc(C(=O)NCC3CCCO3)[nH]n2)cc1C (stereo unspecified)
    2, 102, 102, -4
- O=C(CN1C(=O)C(c2ccccc2)Oc2cccnc21)NCc1ccccc1 (stereo unspecified)
    -3, 103, 98, 4
- CCN(Cc1ccccc1)C(=O)CSc1nc(C)cc2c1C(=O)OC2
    ., 108, 110, -28
- CCOc1ccc(OCC)c(NC(=O)CSc2nc3c(c(=O)n(C)c(=O)n3C)n2C(C)C)c1
    9, 100, 99, 11

Further records
Second line of a record: Mtb MbtI inh, PV pol inh, PV pol inh intensity, MenB inh
- CCOC(=O)N1CCN(C(=O)CSc2nnc(Cc3cccn3C)n2-c2ccc(F)cc2)CC1
    -1, 102, 108, -3
- C=CCNC(=S)Nc1c(C)nn(CC)c1C
    0, 99, 99, 4
- CC(=O)Nc1cc2c(cc1C(=O)c1ccccc1)OCCO2
    14, 101, 103, 23
- Cc1cc(C(=O)NCC2(c3ccccc3)CCOCC2)oc1C
    9, 102, 99, -45
- CCn1c(SCC(=O)NC2CCCC(C)C2C)nnc1-c1ccccc1 (stereo unspecified)
    -6, 103, 104, -11
- O=C(O)CCC1CCCCC1=O (stereo unspecified)
    5, 102, 101, 1
- Cn1nccc1NC(=O)COCC(=O)O
    -9, 104, 108, 16
- CN(N)C(=O)Nc1ccccc1
    7, 103, 97, -15
- O=C(Nc1ccccc1)Nc1ccccc1SCCS(=O)(=O)c1ccc(Cl)cc1
    -12, 104, 103, 6
- CC(C)(C)C(=O)CNS(=O)(=O)c1ccc(S(=O)(=O)NC2CCCCC2)cc1
    -11, 100, 102, -31
- Cn1c(=O)n(Cc2ccccc2)c(=O)c2c1nc(Cl)n2Cc1ccccc1
    -5, 102, 105, 9
- C1=C(c2ccccc2)Nc2nc3ccccc3n2C1c1ccccc1 (stereo unspecified)
    43, 103, 108, -43
- COC(=O)C1=C(Nc2ccccc2NS(=O)(=O)c2ccc(C(F)(F)F)cc2Cl)CSC1
    -10, 101, 111, -7
- N/C(=N\C(=S)Nc1ccccc1)N1CCN(Cc2ccccc2)CC1
    2, 98, 99, -13
- N#CCCN(Cc1ccncc1)C(=S)NC1CC2C=CC1C2 (stereo unspecified)
    -13, 103, 102, -8
- Cc1noc(C)c1S(=O)(=O)NC(C)c1ccccc1 (stereo unspecified)
    -5, 102, 105, -15
- COc1cc(C=C2C(=O)NC(=O)NC2=O)cc(Br)c1OCc1c(C)no[n+]1[O-]
    36, 96, 98, -17
- CC(=O)Nc1ccc(OCc2ccc3c(c2)OCO3)cc1
    -15, 103, 103, -19
- Cc1ccc(-c2nnc(C3CCN(S(=O)(=O)c4ccc(Cl)s4)CC3)o2)cc1
    3, 100, 103, 10
- CCCN1C(=O)/C(=C/c2c(NCC)nc3ccccn3c2=O)SC1=S
    -2, 90, 186, 9
- CN1C(=O)/C(=C/c2cn(CC(=O)NCc3ccco3)c3ccccc23)C(=O)NC1=S
    13, 101, 106, -24
- COC(=O)C(C(=O)Nc1ccccc1C)C1CCCCCC1 (stereo unspecified)
    -17, 102, 103, -5
- O=C1C(=Cc2ccccc2)C(=O)N(c2ccccc2)C(=O)N1c1ccccc1
    2, 101, 105, -39
- CCSC(=S)c1c(C)[nH]n(-c2ccccc2)c1=O
    15, 107, 117, -27
- COc1ccc(OCC(=O)O)cc1
    ., 103, 110, -1
- CCc1nnc(SCc2cc(=O)n3ccsc3n2)n1C
    -13, 103, 102, -2
- O=C1CCc2ccc(NC(=O)C3CC3)cc2N1
    -4, 102, 102, -42
- COc1ccc(-n2c(SCC(=O)c3cc4ccccc4o3)nc3ccccc32)cc1
    8, 106, 111, -28
- Cc1cc(N)n(-c2ccc(Cl)cc2)n1
    14, 103, 101, 1
- Oc1ccc(Br)cc1C=NCc1ccccc1
    ., 97, 106, -15
- FC(F)(F)c1[nH]nc(-c2ccccc2)c1C12CC3CC(CC(C3)C1)C2
    ., 108, 110, -3
- NC(=S)C(=S)N1CCOCC1
    20, 102, 104, 30
- COc1ccccc1NC(=O)COC(=O)CCC1CCCC1
    6, 97, 93, -36
- CCc1c(C)nc(N)n2c(SCc3ccc(C(F)(F)F)cc3)nnc12
    6, 100, 103, -26
- CCOC(=O)N1CCC(=NNc2ccc(Cl)c(C(=O)O)c2)CC1
    14, 105, 102, -11
- COCCNc1ncnc2c1sc1nc(N3CCOCC3)c3c(c12)CCC3
    51, 102, 99, -33
- Cc1nc(SCC(=O)Nc2ccc(-c3ccccc3)cc2)c2c3c(sc2n1)CCC3
    3, 102, 103, -17
- CCSc1n[nH]c(-c2ccc(Cl)cc2)n1
    71, 100, 103, -2
- CCc1ccc(-n2c(N3CCN(c4ccccc4)CC3)nc3ccccc3c2=O)cc1
    -2, 100, 103, -19
- CC(=O)N1CCOc2cc(S(=O)(=O)N(C)C3CCCC(C)C3C)ccc21 (stereo unspecified)
    -6, 103, 105, -9
- CN1CCC(N(C)C(=O)c2ccc3nccnc3c2)CC1
    5, 100, 102, 6
- CCOC(=O)c1sc(SC)nc1NS(=O)(=O)c1cc(C(F)(F)F)cc(C(F)(F)F)c1
    -5, 100, 104, 5
- O=C(Nc1c(C(=O)Nc2ccc3c(c2)OCO3)oc2ccccc12)c1ccco1
    9, 97, 99, 7
- O=C(CSc1ncn[nH]1)NC1CCCCC1
    -5, 98, 99, .
- Cn1c2c(c(=O)c3ccccc31)CCCC2
    140, 99, 101, -15
- Cc1ccc(-n2c(C)cc(/C=C(/C#N)c3ccccc3)c2C)cc1
    2, 102, 102, -26
- NC1=NC(=O)C2(COC(c3ccccc3Cl)OC2)S1 (stereo unspecified)
    6, 100, 103, 15
- O=c1c2oc3ccccc3c2ncn1Cc1ccccc1
    7, 99, 99, 0

Among those listed so far, these have a tert-butyl group:
Second line of a record: Mtb MbtI inh, PV pol inh, PV pol inh intensity, MenB inh
- CC(C)(C)c1ccc(S(=O)(=O)CCSc2nc3ccccc3s2)cc1
    -9, 105, 109, -11
- CC(C)(C)C(=O)COC(=O)c1ccc2c(c1)OCCO2
    6, 105, 105, -19
- CSc1nc(COc2ccc(C(C)(C)C)cc2)nc(N)c1C#N
    -5, 101, 110, -3
- CC(C)(C)C(=O)CNS(=O)(=O)c1ccc(S(=O)(=O)NC2CCCCC2)cc1
    -11, 100, 102, -31
